Ecoli rRNA inh: inhibitors of bacterial rRNA selective over humanized ribosomes; E. coli WT GFP vs humanized-ribosome RFP mutants, fluorescence, 24 h; hits give low values; DMSO median 0, no signal -100; AID 720706; GFP signal change (wild-type ribosome), % (concentration not given with the values); 350,000 compounds, 1.6% hits;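 active = significant combined selectivity score with lowered wild-type GFP, culture density cut under 30%, mutant RFP and density less affected; inactive = any of these conditions unmet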; note: one replicate is shown; some compounds called inactive have numbers as strong as hits
FGF22 binding: FGF22 (human) thermal shift binding; calls only at 9.99 µM; AID 651658; 340,000 compounds, 1.5% hits; recombinant FGF22 thermal shift, SYPRO orange fluorescence; percent of sucrose octasulfate shift, DMSO zero; Q9HCT0;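 active = melting point raised past a set limit in the mean and every replicate; three in four hits are not shown here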
Target sequence (Q9HCT0 whole entry, looked up): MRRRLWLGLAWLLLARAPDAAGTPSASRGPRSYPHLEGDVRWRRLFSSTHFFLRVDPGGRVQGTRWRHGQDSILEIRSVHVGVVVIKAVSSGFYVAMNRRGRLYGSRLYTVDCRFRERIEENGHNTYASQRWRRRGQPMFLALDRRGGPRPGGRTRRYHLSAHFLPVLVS
UCH37 inh: human UCH37 deubiquitinating enzyme inhibition; 330,000 compounds, 0.33% hits; purified proteasome/UCH37, Ub-AMC cleavage fluorescence; Q9Y5K5; inhibition, % (concentration not given with the values);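 active = mean of two replicates above 20%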;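 note: 0% = compound-free wells with enzyme and 100% = wells lacking proteasome; stock transfer was 100 nL into about 20 µL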
Target sequence (Q9Y5K5 whole entry, looked up): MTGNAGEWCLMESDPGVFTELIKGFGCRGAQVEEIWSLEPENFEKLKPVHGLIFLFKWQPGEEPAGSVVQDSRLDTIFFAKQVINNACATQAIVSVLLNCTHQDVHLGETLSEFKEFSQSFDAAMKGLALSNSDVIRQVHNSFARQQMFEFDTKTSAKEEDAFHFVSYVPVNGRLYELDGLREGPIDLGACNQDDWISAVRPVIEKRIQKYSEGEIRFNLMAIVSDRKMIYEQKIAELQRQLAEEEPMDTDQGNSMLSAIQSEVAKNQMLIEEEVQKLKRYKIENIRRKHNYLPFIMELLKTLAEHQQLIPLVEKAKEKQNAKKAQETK
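System: Proteasome-associated human UCH37 deubiquitinase; Input: 0.15 nM proteasome in added enzyme buffer; Also added: Ub-AMC substrate from 1 µM stock; Incubation: 30 min compound-proteasome preincubation then 25 min substrate reaction, room temperature; Detection: fluorescence, ex 355 nm, em 460 nm; Read-out: % inhibition of Ub-AMC cleavage fluorescence; Benchmarks: no-proteasome and no-compound wells.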
T cruzi repl: T. cruzi replication inhibition | inhibition, % (concentration not given with the values) | AID 1885 | 300,000 compounds, 1.4% hits | T. cruzi beta-gal in NIH3T3, luminescence, 90 h;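 active = mean inhibition across valid replicates above about 55%, limit read from the data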;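 note: signal also drops with host cell toxicity which is not excluded here; 0% = plate median of DMSO wells and 100% = zero luminescence signal; higher percent means less beta-gal luminescence so fewer parasites; stock transfer was 50 nL into about 50 µL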
Beta cell apopt: blocks beta cell apoptosis | INS-1E cytokine-induced death, ATP luminescence, 48 h; percent of positive-control rescue, neutral wells zero | protection from apoptosis, % (test concentration not listed) | 300,000 compounds, 0.8% hits;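 active = all replicates at 75% or more, or half of them and the mean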;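 note: 0% = cytokine-treated negative control wells and 100% = positive control rescue; higher means more ATP so stronger rescue from cytokine killing; wells of about 40 µL received 100 nL stock; the first replicate is given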
AF4-AF9 inh: MLL-AF4/AF9 protein interaction inhibition. P42568. AlphaScreen, biotin-AF4 peptide binding to FLAG-AF9. inhibition, % at 10 µM. 350,000 compounds, 0.47% hits. AID 651704;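 active = every replicate reaching a set inhibition limit, whatever the replicate mean, cut at about 25% in these data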;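 note: 0% = plate neutral control median and 100% = total signal loss; the record names both 10 and 1 µM as test concentration; the first replicate is given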
Target sequence (P42568 whole entry, looked up): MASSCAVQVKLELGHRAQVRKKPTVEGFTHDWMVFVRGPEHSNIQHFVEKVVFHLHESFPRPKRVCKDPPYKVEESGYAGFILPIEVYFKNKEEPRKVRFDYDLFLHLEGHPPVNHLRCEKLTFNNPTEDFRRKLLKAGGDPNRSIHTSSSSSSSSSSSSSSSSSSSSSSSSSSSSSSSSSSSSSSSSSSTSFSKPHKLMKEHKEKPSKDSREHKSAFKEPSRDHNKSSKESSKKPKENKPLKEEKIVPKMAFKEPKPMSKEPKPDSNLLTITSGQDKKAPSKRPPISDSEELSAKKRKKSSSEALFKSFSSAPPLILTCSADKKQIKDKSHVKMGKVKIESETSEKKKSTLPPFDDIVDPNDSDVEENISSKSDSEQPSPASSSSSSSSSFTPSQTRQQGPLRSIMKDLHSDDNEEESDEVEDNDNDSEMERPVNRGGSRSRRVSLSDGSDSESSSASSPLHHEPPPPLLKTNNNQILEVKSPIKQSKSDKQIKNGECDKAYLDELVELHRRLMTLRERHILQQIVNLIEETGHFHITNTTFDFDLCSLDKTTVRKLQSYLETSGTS
A1 inh: inhibitors of the anti-apoptotic protein A1, read as caspase activation. MEF A1-2A-BIM cells, Caspase-Glo 3/7 luminescence, 3 h; percent of clofoctol response, vehicle zero. caspase activation, % (test concentration not listed). 330,000 compounds, 0.066% hits. AID 2462;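 active = over half of replicate activation scores above 10%, or exactly half above 10 with the replicate mean above 10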;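 note: wells of about 30 µL received 50 nL stock; many hits fall short of the cut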
Ecoli growth: inhibitors of Escherichia coli growth; OD600, 23 h; hits give low values; OD600 absorbance (no concentration beside the values); 330,000 compounds, 0.21% hits;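 active = OD600 absorbance below the run mean of sample wells minus 3.6 SD, in any replicate, cut at about 0.56 in these data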;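 note: stock transfer was 300 nL into about 60 µL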
Ecoli rRNA inh OD600: recorded beside Ecoli rRNA inh, whose call it bears; OD600 change, %; measured here: OD600 growth;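 optical density of the mix in the first replicate; 0 = DMSO median and -100 = no signal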
Ecoli rRNA inh RFP: also measured in Ecoli rRNA inh; calls as there; RFP signal change, %; measured here: RFP humanized mutant strains;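 first replicate; 0 = DMSO median and -100 = no signal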
An asterisk follows results filed as active. These rows are one share of the data; count on the stated rates, not on these rows.

For O=S(=O)(Nc1cccc(S(=O)(=O)N2CCCCCC2)c1)c1ccccc1 the results were Ecoli rRNA inh -57, FGF22 binding inactive, UCH37 inh 4.2, T cruzi repl 8, Beta cell apopt 5, AF4-AF9 inh 0.5, A1 inh 0.8, Ecoli growth 0.67, Ecoli rRNA inh OD600 -74 and Ecoli rRNA inh RFP -18.
Screening Cn1c(=O)n(C)c2cc(NC(=O)CSc3nnc(-c4ccccc4O)n3-c3ccccc3)ccc21 returned UCH37 inh -20, T cruzi repl 10, Beta cell apopt -2, A1 inh 0.1 and Ecoli growth 0.69.
Screening COc1ccc(/C=C2\SC(=O)N(CCc3nnc(N)s3)C2=O)cc1 returned Ecoli rRNA inh -1, FGF22 binding inactive, UCH37 inh 3.3, T cruzi repl 10, Beta cell apopt -2, AF4-AF9 inh -5.0, A1 inh -2.3, Ecoli growth 0.7, Ecoli rRNA inh OD600 -9 and Ecoli rRNA inh RFP -3.9.
Cc1onc(-c2ccccc2)c1NC(=O)N(CCC#N)Cc1ccccc1 was read as Ecoli rRNA inh 12, FGF22 binding inactive, UCH37 inh 2.4, T cruzi repl -4, Beta cell apopt -5, A1 inh 0.2, Ecoli growth 0.69, Ecoli rRNA inh OD600 16 and Ecoli rRNA inh RFP 2.4.
Screening CCOc1cc(C=O)ccc1OS(=O)(=O)c1ccc(NC(C)=O)cc1 returned Ecoli rRNA inh -9, FGF22 binding inactive, UCH37 inh -0.6, T cruzi repl -12, Beta cell apopt -1, AF4-AF9 inh -1.3, A1 inh 0.5, Ecoli growth 0.71, Ecoli rRNA inh OD600 -1 and Ecoli rRNA inh RFP -0.1.
Screening COc1ccc(N(CC(=O)Nc2ccc(C)c(F)c2)S(=O)(=O)c2c(C)noc2C)cc1 returned Ecoli rRNA inh -3, FGF22 binding inactive, UCH37 inh 1.4, T cruzi repl 9, Beta cell apopt 6, AF4-AF9 inh 2.0, A1 inh 0.2, Ecoli growth 0.69, Ecoli rRNA inh OD600 -9 and Ecoli rRNA inh RFP -7.9.
`O=C(Nc1ccccc1Cc1ccccc1)c1ccc2c(c1)SC1=NS(=O)(=O)CCN12` gave FGF22 binding inactive, UCH37 inh 3.0, T cruzi repl -2, AF4-AF9 inh -0.6, A1 inh -0.1 and Ecoli growth 0.71.
For O=C(NCC1OCCc2ccccc21)c1cc(COc2ccc(F)cc2Cl)on1 (centres undefined) the results were Ecoli rRNA inh 15, FGF22 binding inactive, UCH37 inh 3.6, T cruzi repl 26, Beta cell apopt 9, AF4-AF9 inh -1.5, A1 inh -0.4, Ecoli growth 0.74, Ecoli rRNA inh OD600 9 and Ecoli rRNA inh RFP -0.8.
`CCC(NC(=O)c1ccccc1O)c1ccccc1` (centres undefined) gave UCH37 inh -34, T cruzi repl -4, A1 inh 0.1 and Ecoli growth 0.67.
`CCC(=O)Nc1cccc(NC(=O)CSc2nnnn2C)c1` gave UCH37 inh 2.1, T cruzi repl 1, Beta cell apopt -1, A1 inh 1.1 and Ecoli growth 0.7.
CCCCOc1ccc(OCCNC(=O)c2ccco2)cc1 was read as Ecoli rRNA inh -8, FGF22 binding inactive, UCH37 inh 0.2, T cruzi repl 8, Beta cell apopt -3, AF4-AF9 inh -0.6, A1 inh -0.4, Ecoli growth 0.57, Ecoli rRNA inh OD600 -26 and Ecoli rRNA inh RFP 16.
Screening COc1ccc(OCCCCOc2ccccc2Cl)cc1 returned UCH37 inh 3.8, T cruzi repl 12, Beta cell apopt -7, A1 inh -0.4 and Ecoli growth 0.69.

Gathered by group: the compounds so far with fluorine.
Screening COc1ccc(N(CC(=O)Nc2ccc(C)c(F)c2)S(=O)(=O)c2c(C)noc2C)cc1 returned Ecoli rRNA inh -3, FGF22 binding inactive, UCH37 inh 1.4, T cruzi repl 9, Beta cell apopt 6, AF4-AF9 inh 2.0, A1 inh 0.2, Ecoli growth 0.69, Ecoli rRNA inh OD600 -9 and Ecoli rRNA inh RFP -7.9.
For O=C(NCC1OCCc2ccccc21)c1cc(COc2ccc(F)cc2Cl)on1 (centres undefined) the results were Ecoli rRNA inh 15, FGF22 binding inactive, UCH37 inh 3.6, T cruzi repl 26, Beta cell apopt 9, AF4-AF9 inh -1.5, A1 inh -0.4, Ecoli growth 0.74, Ecoli rRNA inh OD600 9 and Ecoli rRNA inh RFP -0.8.

The listing picks up with the two entries that preceded the break.
CCCCOc1ccc(OCCNC(=O)c2ccco2)cc1 was read as Ecoli rRNA inh -8, FGF22 binding inactive, UCH37 inh 0.2, T cruzi repl 8, Beta cell apopt -3, AF4-AF9 inh -0.6, A1 inh -0.4, Ecoli growth 0.57, Ecoli rRNA inh OD600 -26 and Ecoli rRNA inh RFP 16.
Screening COc1ccc(OCCCCOc2ccccc2Cl)cc1 returned UCH37 inh 3.8, T cruzi repl 12, Beta cell apopt -7, A1 inh -0.4 and Ecoli growth 0.69.
`COc1ccc(NC(=O)c2cccc3c2C(=O)N(C2CCCCC2)C3)cc1` gave Ecoli rRNA inh 3, FGF22 binding inactive, UCH37 inh 1.8, T cruzi repl 25, Beta cell apopt -2, AF4-AF9 inh 0.1, A1 inh -1.0, Ecoli growth 0.71, Ecoli rRNA inh OD600 1 and Ecoli rRNA inh RFP -4.6.
For COc1ccc(NC2CCCN(C(=O)CCN3CCCO3)C2)cc1 (centres undefined) the results were Ecoli rRNA inh 5, FGF22 binding inactive, UCH37 inh 6.8, T cruzi repl -3, Beta cell apopt -1, AF4-AF9 inh 2.9, A1 inh -0.1, Ecoli growth 0.69, Ecoli rRNA inh OD600 10 and Ecoli rRNA inh RFP -1.4.
`CC(=O)Nc1cc2nn(-c3ccccc3)nc2cc1Cl` gave UCH37 inh -75, T cruzi repl -13, Beta cell apopt -1, A1 inh 0.2 and Ecoli growth 0.73.
Screening Cc1ccc(S(=O)(=O)CC(=O)c2cc(C)c(O)c(C)c2)cc1 returned Ecoli rRNA inh -24*, FGF22 binding inactive, UCH37 inh 5.2, T cruzi repl 21, Beta cell apopt -3, AF4-AF9 inh -4.4, A1 inh 0.3, Ecoli growth 0.68, Ecoli rRNA inh OD600 -15* and Ecoli rRNA inh RFP 3.5*.
`O=S1CCCSC1c1cccnc1` (centres undefined) gave UCH37 inh 2.3, T cruzi repl -3, Beta cell apopt 2, A1 inh -0.5 and Ecoli growth 0.68.
CC1CCCCC1NC(=O)CSc1nc2ccccc2[nH]1 (centres undefined) was read as Ecoli rRNA inh -2, FGF22 binding inactive, UCH37 inh 0.5, T cruzi repl -6, AF4-AF9 inh -1.8, A1 inh 0.1, Ecoli growth 0.64, Ecoli rRNA inh OD600 -7 and Ecoli rRNA inh RFP 7.1.
Screening O=C(CSc1ccccc1C(=O)O)NCC1CCCCC1 returned Ecoli rRNA inh 27, FGF22 binding inactive, UCH37 inh 0.2, T cruzi repl -14, Beta cell apopt 1, AF4-AF9 inh -1.1, A1 inh 1.5, Ecoli growth 0.72, Ecoli rRNA inh OD600 23 and Ecoli rRNA inh RFP 1.8.
Screening C[C@]12CCC3C(CC[C@H]4CCCC[C@]34C)C1CC[C@@]2(O)CNCCO (some centres undefined) returned Ecoli rRNA inh -65, FGF22 binding inactive, UCH37 inh -8.4, T cruzi repl 14, Beta cell apopt 2, AF4-AF9 inh 2.2, A1 inh 1.3, Ecoli growth 0.64, Ecoli rRNA inh OD600 -82 and Ecoli rRNA inh RFP -18.
`Brc1ccccc1Cn1c(-c2cscn2)nc2ccccc21` gave UCH37 inh 0.3, T cruzi repl -1, Beta cell apopt -20, A1 inh -0.3 and Ecoli growth 0.65.
`Cc1ccc(C(=O)/C=C2\NCC(C)NC2=O)cc1` (centres undefined) gave UCH37 inh 1.8, T cruzi repl -12, Beta cell apopt -8, A1 inh -2.5 and Ecoli growth 0.73.
CCN(C(=O)CSc1ccccn1)C1CCCCC1 was read as Ecoli rRNA inh -6, FGF22 binding inactive, UCH37 inh 1.1, Beta cell apopt -3, AF4-AF9 inh -1.6, A1 inh 0.2, Ecoli growth 0.66, Ecoli rRNA inh OD600 3 and Ecoli rRNA inh RFP -0.1.
`O=C(CSc1nnc(CNC(=O)C23CC4CC(CC(C4)C2)C3)n1-c1ccc(F)cc1)Nc1ccccc1` gave UCH37 inh 1.2, T cruzi repl 12, Beta cell apopt -5, A1 inh 0.5 and Ecoli growth 0.7.
For CN(C)S(=O)(=O)c1ccc(Cl)c(C(=O)NNC(=O)Cn2ccc(C(F)(F)F)n2)c1 the results were Ecoli rRNA inh 1, FGF22 binding inactive, UCH37 inh 2.6, AF4-AF9 inh -3.6, Ecoli growth 0.62, Ecoli rRNA inh OD600 -1 and Ecoli rRNA inh RFP -2.0.
COc1cccc(CNC(=O)c2ccc(NC(=O)CC3SC(N4CCCC4)=NC3=O)cc2)c1 (centres undefined) was read as FGF22 binding inactive, UCH37 inh 1.6, Beta cell apopt 2, AF4-AF9 inh -2.9, A1 inh -0.8 and Ecoli growth 0.71.
`COc1ccc(/C(N)=N/OC(=O)c2cccc([N+](=O)[O-])c2C)cc1` gave Ecoli rRNA inh 0, FGF22 binding inactive, UCH37 inh 4.0, T cruzi repl 17, Beta cell apopt 6, AF4-AF9 inh 0.4, A1 inh 0.3, Ecoli growth 0.72, Ecoli rRNA inh OD600 7 and Ecoli rRNA inh RFP -10.
For Cc1ccc(N(CN2C(=O)c3ccccc3C2=O)C(=O)c2ccc([N+](=O)[O-])cc2[N+](=O)[O-])cc1 the results were Ecoli rRNA inh -1, FGF22 binding inactive, UCH37 inh 2.4, T cruzi repl 8, Beta cell apopt -5, AF4-AF9 inh 18, A1 inh 0.4, Ecoli growth 0.68, Ecoli rRNA inh OD600 -13 and Ecoli rRNA inh RFP -5.4.
`CCOC(=O)c1sc2nccc(N(C)C)c2c1N=CNOCc1ccccc1` gave UCH37 inh -20, T cruzi repl 29, Beta cell apopt 3, A1 inh 0.2 and Ecoli growth 0.74.
For O=C(CCCOc1ccc(Cl)cc1)Nc1cccc(C(=O)O)c1 the results were Ecoli rRNA inh -21, UCH37 inh 1.3, T cruzi repl 2, Beta cell apopt 0, AF4-AF9 inh 0.4, A1 inh -0.2, Ecoli growth 0.7, Ecoli rRNA inh OD600 -24 and Ecoli rRNA inh RFP -8.8.
`CSc1cccc(CNC(=O)C2CCC(=O)N(CCCN3CCCC3=O)C2)c1` (centres undefined) gave Ecoli rRNA inh 5, FGF22 binding inactive, UCH37 inh -0.1, T cruzi repl 3, Beta cell apopt -6, AF4-AF9 inh 0.2, A1 inh 0.7, Ecoli growth 0.69, Ecoli rRNA inh OD600 6 and Ecoli rRNA inh RFP -0.3.
`Cc1cc(C)c2c(N)c(C(=O)NN3CC(=O)N(c4cccc(Cl)c4)CC3=O)sc2n1` gave Ecoli rRNA inh 6, FGF22 binding inactive, UCH37 inh -89, T cruzi repl -5, AF4-AF9 inh -6.6, A1 inh 0.6, Ecoli growth 0.68, Ecoli rRNA inh OD600 -6 and Ecoli rRNA inh RFP -0.5.
`CC[C@H](C)NC(=O)CCCCCn1c(=S)[nH]c2c([nH]c3ccc(OC)cc32)c1=O` gave Ecoli rRNA inh 21, FGF22 binding inactive, T cruzi repl 5, Beta cell apopt -2, AF4-AF9 inh -0.9, A1 inh 0.9, Ecoli rRNA inh OD600 26 and Ecoli rRNA inh RFP 2.7.

Compound activity from PubChem.
